# rRNA inh HTS – inhibits bacterial ribosomal RNA function over humanized ribosomes. GFP signal change (wild-type ribosome), % (no concentration beside the values). AID 720706. 350,000 compounds, 1.6% hits. E. coli WT GFP vs humanized-ribosome RFP mutants, fluorescence, 24 h; active compounds read low; DMSO median 0, no signal -100;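 active = significant combined selectivity score with lowered wild-type GFP, culture density cut under 30%, mutant RFP and density less affected; inactive = any of these conditions unmet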; note: one replicate is shown; some compounds called inactive have numbers as strong as hits
# AF4-AF9 inh – blocks AF4 peptide binding to human AF9; P42568; AlphaScreen, biotin-AF4 peptide binding to FLAG-AF9; inhibition, % at 10 µM; 350,000 compounds, 0.47% hits; AID 651704;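 active = every replicate reaching a set inhibition limit, whatever the replicate mean, cut at about 25% in these data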;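 note: 0% = plate neutral control median and 100% = total signal loss; the record names both 10 and 1 µM as test concentration; the first replicate is given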
# Target sequence (P42568 whole entry, looked up): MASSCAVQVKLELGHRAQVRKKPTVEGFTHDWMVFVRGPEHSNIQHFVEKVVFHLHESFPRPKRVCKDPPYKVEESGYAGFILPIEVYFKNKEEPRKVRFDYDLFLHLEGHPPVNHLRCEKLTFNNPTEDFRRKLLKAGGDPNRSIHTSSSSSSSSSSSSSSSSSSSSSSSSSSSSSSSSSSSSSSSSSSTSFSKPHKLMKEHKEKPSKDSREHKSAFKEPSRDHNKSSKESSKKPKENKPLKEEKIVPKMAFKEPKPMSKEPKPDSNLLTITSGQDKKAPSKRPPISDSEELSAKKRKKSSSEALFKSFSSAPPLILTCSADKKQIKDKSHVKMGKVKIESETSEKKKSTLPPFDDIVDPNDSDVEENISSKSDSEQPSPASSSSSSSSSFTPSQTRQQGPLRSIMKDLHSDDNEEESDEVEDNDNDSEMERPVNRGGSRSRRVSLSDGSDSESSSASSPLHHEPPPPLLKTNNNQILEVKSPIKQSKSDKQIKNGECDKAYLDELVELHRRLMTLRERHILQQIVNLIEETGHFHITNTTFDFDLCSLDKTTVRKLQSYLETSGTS
# rRNA inh HTS OD600 – second read-out of rRNA inh HTS, no call of its own (marks repeat the call); OD600 change, %; measured here: OD600 growth;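 optical density of the mix in the first replicate; 0 = DMSO median and -100 = no signal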
# rRNA inh HTS RFP – further read-out of rRNA inh HTS, marked with its call; RFP signal change, %; measured here: RFP humanized mutant strains;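 first replicate; 0 = DMSO median and -100 = no signal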
# The depositor's hits bear a star; & = joins results of further samples. This is a subset, so the mix of outcomes need not match the whole.
# Each structure is followed by: rRNA inh HTS	rRNA inh HTS OD600	rRNA inh HTS RFP	AF4-AF9 inh
1: O=C(C1CCC1)N1CC(=O)N2[C@H](CO)[C@H](c3ccc(-c4cccnc4)cc3)[C@H]2C1
→ 2.4	9.9	-3.3	-3.0
2: COC(=O)C=CSC(=S)C1CCCC1=N (configuration not stated)
→ 2.2	3.3	0.8	1.5
3: O=C(c1ccncc1)N1CC(=O)N2[C@H](CO)[C@@H](c3ccc(/C=C/c4ccccc4)cc3)[C@@H]2C1
→ -1.3	-10.0	2.4	5.6
4: CN(Cc1ccccc1)C(=O)c1ccc(NC(=O)Cc2ccc(NC(=O)C3CCCN(C(=O)CCc4ccccc4)C3)cc2)cc1 (configuration not stated)
→ 1.6	4.2	5.0	-0.6
5: COc1ccc(S(=O)(=O)Nc2ccc3c(c2)C(=O)N([C@@H](C)CO)C[C@@H](C)[C@H](CN(C)C)O3)cc1
→ 3.7	4.7	-0.2	-5.2
6: CC(=O)N1CC(=O)N2[C@H](CO)[C@H](c3ccc(-c4ccncc4)cc3)[C@@H]2C1
→ 1.3	-4.8	-1.1	-4.1
7: CO[C@H]1CN(C)C(=O)c2cc(NS(C)(=O)=O)ccc2OC[C@@H](C)N(CC2CCOCC2)C[C@H]1C
→ 1.6	2.2	-1.3	1.5
8: COc1ccc(S(=O)(=O)N2CC3(CN(Cc4ccncc4)[C@H](CO)c4[nH]c5cc(OC)ccc5c43)C2)cc1
→ -2.3	-7.4	1.4	-4.0
9: CNC(=O)C[C@H]1CC[C@H]2[C@@H](COC[C@H](O)CN2C(=O)Nc2ccc(Cl)c(Cl)c2)O1
→ -58.4	-80.7	-18.0	1.3
10: COc1ccc(-c2ccc([C@@H]3[C@@H](CO)N4C(=O)CN(C(=O)C5CCCC5)C[C@H]34)cc2)cc1
→ 1.0	-12.6	4.3	0.8
11: C[C@H]1CN([C@@H](C)CO)C(=O)Cc2cc(NC(=O)CCCN(C)C)ccc2O[C@H]1CN(C)Cc1ccc(Oc2ccccc2)cc1
→ -4.0	-5.7	12.6	11.0
12: CN(C)CC(=O)N1[C@@H](C#N)[C@@H](c2ccccc2-c2ccccc2F)[C@@H]1CO
→ 3.0	6.4	-0.9	-22.8
13: COC(=O)[C@H]1[C@H](CO)[C@H]2Cn3c(ccc(C4=CCCC4)c3=O)[C@H]2N1C(=O)C1CCC1
→ 1.2	9.8	-0.2	4.9
14: COCC(=O)Nc1ccc2c(c1)[C@H]1C[C@@H](CC(=O)O)O[C@H](CO)[C@H]1O2
→ -1.5	0.5	1.6	-1.0
15: CCCNC(=O)C[C@@H]1CC[C@H]2[C@@H](COc3ccc(NC(=O)c4cscn4)cc3C(=O)N2C)O1
→ 3.5	3.1	-0.5	-1.9
16: COc1ccc(-c2ccc([C@@H]3[C@H](CO)N4C(=O)CN(C(=O)c5ccccc5)C[C@@H]34)cc2)cc1
→ -1.5	-4.2	-0.4	2.1
17: CCS(=O)(=O)N1CCC2(CC1)CN(C(=O)Nc1c(C)noc1C)[C@H](CO)c1c2c2ccc(OC)cc2n1C
→ 5.8	7.3	1.1	-1.1
18: C[C@H]1CN([C@@H](C)CO)C(=O)Cc2cc(NS(C)(=O)=O)ccc2O[C@H]1CN(C)CC1CC1
→ 2.0	-3.3	-2.2	0.1
19: CN(C)C(=O)c1cccc(-c2ccc(C3[C@@H]4CN(C(=O)c5ccccn5)C[C@H]3N4)cc2)c1 (some centres not stated)
→ 5.7&3.5	-6.7&-5.7	-1.8&5.2	-4.2&-6.0
20: COc1ccc2c3c(n(C)c2c1)[C@@H](CO)N(C(=O)NC(C)C)CC31CCN(CC2CCOCC2)CC1
→ 4.6	9.8	-2.7	3.1
21: O=C(CC1CC1)N1CC(=O)N2[C@H](CO)[C@H](c3ccc(C#Cc4ccccc4)cc3)[C@H]2C1
→ 6.1	10.8	-1.9	-1.5
22: CN(C[C@@H]1N[C@H](CO)[C@@H]1c1ccc(-c2ccccc2)cc1)C(=O)C1CCC1
→ -2.1	-4.5	11.3	2.4
23: CN(C)CC(=O)N1CC2(C1)[C@H](c1ccccc1)[C@@H](CO)N2C(=O)C1CCC1
→ -0.9	12.2	-2.6	-0.8
24: O=C([C@H]1[C@H](CO)[C@H]2Cn3c(cccc3=O)[C@H]2N1C(=O)C1CCCC1)N1CCOCC1
→ 3.4	4.6	0.8	-1.9
25: COCC(=O)N1CC(=O)N2[C@H](C1)[C@H](c1ccc(C#CC3CCCC3)cc1)[C@@H]2CO
→ 4.9	3.3	-0.7	-0.2
26: COc1ccc(-c2ccc([C@H]3[C@@H](CO)N4C(=O)CN(C(=O)C5CCOCC5)C[C@@H]34)cc2)cc1
→ 5.1	18.9	-0.3	0.7
27: O=C(Nc1ccccc1F)N1CC(=O)N2[C@H](C1)[C@@H](c1ccc(C#Cc3ccc(F)cc3)cc1)[C@@H]2CO
→ -6.3	-43.2	27.8	-1.9
28: O=C(C1CCOCC1)N1CC(=O)N2[C@H](CO)[C@@H](c3ccc(Br)cc3)[C@@H]2C1
→ 0.7	-5.3	-3.5	-3.1
29: C/C=C/c1ccc([C@H]2[C@@H](CO)N(C(=O)C3CC3)[C@H]2CN(C)S(C)(=O)=O)cc1
→ 1.6	1.8	-1.5	-1.6
30: CC(=O)N1[C@H](CO)[C@H](c2ccc(-c3cccnc3)cc2)[C@H]1CNC(=O)C1CC1
→ 3.2	12.4	-2.8	-2.1
31: C[C@@H]1CN([C@H](C)CO)C(=O)c2cc(NS(=O)(=O)c3ccc(Cl)cc3)ccc2O[C@@H](C)CCCCO[C@@H]1CN(C)Cc1ccccc1
→ -9.9	-44.1	15.1	0.8
32: CCCNC(=O)N1CC2(C1)[C@@H](c1ccccc1)[C@@H](CO)N2C(=O)C1CCC1
→ 3.6	8.6	0.0	-1.1
33: N#Cc1ccc(-c2ccc3c(c2)[C@@H]2[C@@H](CCN2C(=O)C2CCC2)[C@@H](CO)N3)cc1
→ -20.4	-33.4	18.0	2.1
34: O=C(C1CC1)N1CC(=O)N2[C@H](CO)[C@H](c3ccc(-c4ccccc4F)cc3)[C@@H]2C1
→ 0.5	2.8	0.6	-3.2
35: CO[C@H]1CC[C@@H]2CCOc3ccc(C#N)cc3C(=O)N(C)CCCC(=O)N(C)C[C@H]1O2
→ -1.5	-7.8	-2.4	-0.9
36: Fc1cccc(CN2C[C@@H]3N[C@H](C2)C3c2ccc(-c3cncnc3)cc2)c1 (some centres not stated)
→ 2.8&1.5	19.9&-14.3	1.7&-3.5	-0.2&-2.4
37: C/C=C/c1ccc([C@@H]2[C@H]3CN(C(=O)c4ccncc4)CC(=O)N3[C@H]2CO)cc1
→ 3.5	-9.5	0.1	-3.1
38: CC=Cc1ccc2n(c1=O)C[C@@H]1[C@@H](CO)[C@H](C(=O)NC3CCC3)[C@H]2N1Cc1ccncc1 (mixture of isomers)
→ 2.7	8.5	-1.8	-1.8
39: CCCN1C[C@@H](C)[C@H](OC)CN(C)C(=O)c2cc(NC(=O)c3ccccc3)ccc2OC[C@@H]1C
→ 2.0	2.0	-0.8	-0.2
40: CN(C)C(=O)C[C@@H]1CC[C@@H]2[C@H](COC[C@H](O)CN2CC2CC2)O1
→ -5.4	-4.2	-3.3	-4.6
41: O=C(c1ccccc1)N1CC(=O)N2[C@H](C1)[C@H](c1ccc(-c3ccccc3)cc1)[C@@H]2CO
→ -1.0	-14.7	-3.0	8.6
42: COc1cccc(-c2ccc([C@@H]3[C@@H](CO)N4C(=O)CN(C(=O)c5ccncc5)C[C@@H]34)cc2)c1
→ -2.3	-0.2	-3.6	-2.8
43: N#Cc1cccc(-c2ccc(C3[C@H]4CNC[C@@H]3N4Cc3cc(F)ccc3F)cc2)c1 (some centres not stated)
→ -3.3&-56.0	-14.8&-80.8	2.3&-14.8	-0.1&0.0
44: CCCC#Cc1ccc([C@H]2[C@H](CO)N3C(=O)CN(C(=O)Nc4ccc(F)cc4)C[C@@H]23)cc1
→ -10.4	-39.0	21.6	3.8
45: COc1ccc2c3c(n(C)c2c1)[C@@H](CO)N(C(=O)Nc1ccc(F)cc1)CC31CN(S(=O)(=O)c2cccs2)C1
→ -4.7	-10.6	-2.2	-0.7
46: O=C(C[C@H]1C[C@H]2c3cc(NC(=O)Nc4ccccc4)ccc3O[C@H]2[C@H](CO)O1)NCc1ccccn1
→ -4.2	5.0	1.2	-2.3
47: c1ccc(-c2ccc(C3[C@H]4CNC[C@@H]3N4Cc3cccc(-c4ccncc4)c3)cc2)cc1 (some centres not stated)
→ -1.9	-0.7	-2.0	4.4
48: CO[C@@H]1CN(C)C(=O)c2ccc(NC(C)=O)cc2OC[C@@H](C)N(C(=O)C2CCC2)C[C@@H]1C
→ 0.9	2.3	-1.4	-2.4
49: C[C@H](CO)N1C[C@H](C)[C@@H](CN(C)C)OCCCC[C@H](C)Oc2ccc(NS(=O)(=O)c3ccc(Cl)cc3)cc2C1=O
→ 2.7	-0.3	1.4	-7.2
50: CN(C)C(=O)c1ccc(-c2ccccc2[C@@H]2[C@@H](C#N)N(C(=O)C3CCCC3)[C@@H]2CO)cc1
→ 9.8	15.8	2.7	-0.5

# Continued.
# Each structure is followed by: rRNA inh HTS	rRNA inh HTS OD600	rRNA inh HTS RFP	AF4-AF9 inh
51: COCC(=O)Nc1ccc2c(c1)C(=O)N(C)C[C@@H](OC)[C@@H](C)CN(C)[C@@H](C)CO2
→ 1.2	3.2	-1.1	2.0
52: CN(C)CC#Cc1ccc([C@H]2[C@@H](CO)N3C(=O)CN(C(=O)c4cccnc4)C[C@@H]23)cc1
→ -0.5	-8.0	3.4	-2.7
53: COc1cccc(-c2ccc(C3[C@@H]4CN(C(=O)C5CC5)C[C@H]3N4)cc2)c1 (some centres not stated)
→ -1.1&0.0	26.4&-3.0	5.3&-0.2	-10.4&-5.2
54: Cc1ccccc1-c1ccc([C@@H]2[C@@H](CO)N3C(=O)CN(C(=O)Nc4ccc(F)cc4)C[C@@H]23)cc1
→ -19.0	-55.0	23.3	0.9
55: C[C@H]1CN([C@@H](C)CO)C(=O)c2c(c3ccccc3n2C)-c2ccccc2CO[C@@H]1CN(C)Cc1ccc(O)cc1
→ -2.2	6.2	5.8	0.3
56: CC1(C2CC2)NC(=O)N(CC(=O)Nc2ccccc2F)C1=O (configuration not stated)
→ 9.2	11.1	-0.7	-0.7
57: CS(=O)(=O)Nc1ccc2c(c1)[C@H]1C[C@@H](CC(=O)O)O[C@@H](CO)[C@H]1O2
→ 1.3	4.7	-3.2	-2.3
58: O=C(NC1CCCC1)N1CC(=O)N2[C@H](CO)[C@@H](c3ccc(-c4cccnc4)cc3)[C@@H]2C1
→ -2.2	2.3	-2.0	-1.9
59: CCCNC(=O)Nc1ccc2c(c1)OC[C@H](C)N(CC1CCCC1)C[C@H](C)[C@H](OC)CN(C)C2=O
→ 3.4	3.5	-0.2	0.1
60: C[C@H](CO)N1C[C@H](C)[C@@H](CN(C)Cc2ccc(-c3ccccc3)cc2)OCc2ccccc2-c2c(n(C)c3ccccc23)C1=O
→ 4.5	15.1	-3.7	2.8
61: O=C(C[C@@H]1CC[C@@H](NC(=O)Nc2ccccc2F)[C@@H](CO)O1)NCc1ccc(-c2ccccc2)cc1
→ -9.9	-13.2	3.6	-2.6
62: CCCC#Cc1ccc([C@H]2[C@@H](CO)N3C(=O)CN(C(=O)c4ccccn4)C[C@@H]23)cc1
→ 0.9	-3.2	-0.7	-0.5
63: O=C(N[C@@H]1C=C[C@H](CC(=O)N2CCN(c3ccccc3)CC2)O[C@@H]1CO)c1ccccc1
→ 1.7	5.1	1.1	-10.3
64: COc1ccc(CNC(=O)C[C@H]2C=C[C@@H](NC(=O)c3ccc4c(c3)OCO4)[C@@H](CO)O2)cc1
→ -3.4	-1.9	1.9	-6.5
65: CN1C(=O)c2cc(NC(=O)c3ccc(C#N)cc3)ccc2OC[C@H]2O[C@@H](CC(=O)Nc3cc(F)ccc3F)CC[C@@H]21
→ -8.8	-17.2	2.2	-3.0
66: COc1ccc2c3c([nH]c2c1)[C@@H](CO)N(Cc1nccs1)CC31CN(C(=O)C2CCOCC2)C1
→ 4.2	5.7	-1.2	-6.6
67: O=C(C[C@H]1CC[C@H](NS(=O)(=O)c2ccccc2)[C@@H](CO)O1)N1CCN(c2ccccc2)CC1
→ 2.1	4.5	1.6	-14.7

# Screening data from PubChem BioAssay.
